Tgondii IFNg = T. gondii growth inhibition under IFN-gamma | Toxoplasma gondii growth in IFN-gamma-treated host cells; active compounds read low; reference of the scale not given here | activity change, negative = inhibition, %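 (about 20 µM by stock and volumes)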 | actives 3.8% (n = 69,000);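 active means below -70%; inconclusive means fit judged invalid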;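 further: host cells are HeLa cells infected with Toxoplasma gondii; parasite growth read as luciferase light; one replicate is shown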
* marks the source's active call; other numbers are inactive results; i = inactive; ? = inconclusive; & = joins results of further samples. This is a subset; rates above refer to the full screens.

SMILES	Tgondii IFNg
Cc1ccc(CSC2=Nc3ccccc3C3=NC(CCC(=O)NC4CCCCC4)C(=O)N23)cc1 (stereo unspecified)	23.1
COc1ccccc1CNC(=O)c1c(O)c2ccccc2n(-c2ccccc2)c1=O	47.9
COc1ccc(S(=O)(=O)Nc2ccc3c(c2)C(=O)N([C@H](C)CO)C[C@H](C)[C@H](CN(C)C(=O)Nc2c(C)noc2C)OCCCC[C@@H](C)O3)cc1	57.6
CCc1nc(SCC(=O)NCc2sc(C)nc2CC)n[nH]1	-15.7
Cc1ccc(N2CCC(CO)(Cc3cccc(F)c3)CC2)nn1	0.5
Cc1nc2ccccc2c(=O)n1CCC(=O)Nc1cccc(OC(C)C)c1	-55.8
COCC(=O)N1[C@@H](CO)[C@@H](c2ccccc2)C12CN(C(=O)c1ccccc1)C2	-32.9
COCC(=O)N1CC[C@H]2[C@H](CO)Nc3ccc(C#Cc4ccc(F)cc4)cc3[C@H]21	1.4
COCCNC(=O)c1nn(CCC(C)C)c2c1CN(C(=O)c1ccccc1-c1ccccc1F)CC2	-3.7
Cc1ccc(N2CC3(CCN(C(=O)c4cnc[nH]4)C3)CC2=O)cc1C (stereo unspecified)	1.8
COc1ccc2cnc(C3CCCN(C(=O)c4cccnc4)C3)cc2c1C (stereo unspecified)	43.4
Cc1cc(C(F)(F)F)nc(C2COCCN2)n1 (stereo unspecified)	33.3
Cc1ccc(CN2Cc3nccn3CC(COCC(=O)N(C)C)C2)o1 (stereo unspecified)	7.1
Cc1cc(C)n(Cc2nc(-c3ccc(NC(=O)c4c(F)cccc4Cl)cc3)oc2C)n1	-61.2
C=C1C2(C(=O)N3CCC(CN4CCCC4=O)CC3)CCC(C2)C1(C)C (stereo unspecified)	1.0
CCc1cn[nH]c1C1CCN(Cc2cn[nH]c2-c2ccc(F)cc2)CC1	0.5
COc1ccc(CN(C)C[C@H]2OCCCC[C@H](C)Oc3ccc(NC(=O)C4CCCCC4)cc3C(=O)N([C@H](C)CO)C[C@H]2C)cc1	-39.1
c1ccc(-n2nnnc2N2CC3C4c5ccccc5C(c5ccccc54)C3C2)cc1 (stereo unspecified)	-41.6
CO[C@@H]1CN(C)C(=O)c2ccc(NC(=O)c3nc4ccccc4s3)cc2OC[C@H](C)N(Cc2cccnc2)C[C@H]1C	-25.2
CC[C@H]1CN(c2ncc(C(=O)O)cc2Cl)CC[C@@]1(C)O	-1.1
CCSc1nnc(C2CCN(Cc3nnnn3CCc3ccccc3)CC2)n1C	50.2
Oc1cc(-c2cccc3c2Oc2ccccc2S3)cc2c1OCCNC2	-60.0
CC(C)CC(=O)N(Cc1ccc(F)cc1)C1CCS(=O)(=O)C1 (stereo unspecified)	-42.5
CCOc1ccc(-c2nc(CN(c3ccc(OC)cc3)S(=O)(=O)c3ccccc3C)c(C)o2)cc1	-31.4
Cc1nsc(NC(=O)N2CCC(C(O)c3ccccn3)CC2)n1 (stereo unspecified)	1.2

Other records follow:
SMILES	Tgondii IFNg
O=C(NCc1cn2ccsc2n1)c1ccccc1C1CCNC1 (stereo unspecified)	-3.0
Clc1ccc(-c2nc(N3CCC(Cc4ccccc4)CC3)c3ccccc3n2)cc1	27.4
CN1CCNC(=O)C12CCN(C(=O)c1ccccc1C(F)(F)F)CC2	-0.8
Cc1ccc(C)c(-c2[nH]ncc2CN(C)Cc2cnn(C)c2C)c1	-1.1
COc1nc2c(cc1C(=O)N1Cc3cnn(CCO)c3C1)CCC2	1.8
CC(=O)N1C[C@@H]2C3(CCN(C(=O)c4cscn4)CC3)CC[C@]2(C(=O)N(C)C)C1	-1.6
Cc1ccc(-c2cc3c(=O)n(Cc4nc(-c5ccccc5)oc4C)ccn3n2)cc1C	52.2
CN(C)C1COC2(CCN(C(=O)c3ccn(C)n3)CC2)C1 (stereo unspecified)	76.3
CC1CCN(C(=O)CSCC(=O)O)CC1	-4.0
COc1ccc(CN2CCc3cnn(C)c3C2COCC2CC2)cc1 (stereo unspecified)	-17.5
COc1ccc(-n2ncc3c2N(CC(=O)Nc2ccccc2F)C(=O)N2CCCN=C32)cc1	-6.7
O=C(NCCNc1nccc(C(F)(F)F)n1)c1ccco1	3.4
Cc1cc(C)n(CC2(CNC(=O)c3ccc(=O)n(C)c3)CC2)n1	-1.0
c1cnc(N2CC3(CCN(c4nccs4)C3)C2)nc1	-4.0
CNC(=O)C1Cn2ccnc2C2(CCN(C(=O)Nc3ccccc3C)CC2)O1 (stereo unspecified)	-23.6
O=S(=O)(NC[C@@H]1[C@@H](c2ccccc2)[C@H](CO)N1CC1CC1)c1ccccc1	12.7
Cc1cccc(C)c1NC(=O)c1nnn(Cc2nc(-c3ccc(Cl)cc3)oc2C)c1C	-122.3*
O=C(NCCc1nc(-c2cccnc2)n[nH]1)C1c2ccccc2Oc2ccccc21	-9.1
C[C@H](Oc1ccc(S(C)(=O)=O)cc1C(=O)N1CCN(c2ncc(C(F)(F)F)cc2F)CC1)C(F)(F)F	?
CC(C)(C)c1cc(/C=C(\C#N)C(N)=S)cc(C(C)(C)C)c1O	-73.5*
O=C(c1nccs1)c1cccnc1N1C[C@@H]2C3CCC(CC3)[C@@H]2C1	-15.0
Nc1ncccc1OCc1nc(CCc2ccccc2)no1	-29.5
CSc1noc(-c2ccc(Cl)cc2)c1C(=O)NC(=O)Nc1ccccc1Cl	-34.5
COc1ccc(C(=O)N2CC=C[C@H]2C(=O)NCCc2ccccc2)cc1	82.2
c1ccc2c3c([nH]c2c1)C(C1CCCCC1)N(Cc1ccn[nH]1)CC3 (stereo unspecified)	13.8

Continuation.
SMILES	Tgondii IFNg
COc1cc(NC(=O)Nc2ccc(OC(F)(F)F)cc2)cc(C(F)(F)F)c1	-95.9*
Cc1ccccc1CN1CCN(Cc2nccn2C)CC1	0.4
CC[C@H](NC(=O)c1c(C)c(-c2ccccc2)nc2ccccc12)c1ccccc1	-12.1&12.9
NC(=O)c1cnc2n1CCN(C(=O)C1CCCc3c1[nH]c1ccccc31)C2 (stereo unspecified)	-2.9
CC1CCN(c2ccc(C(C)NC(=O)C(C)(C)n3cnnn3)cc2)CC1 (stereo unspecified)	-8.7
COc1cccc(-n2c(=O)c(C(=O)Nc3ccc(F)cc3Cl)c(O)c3cccnc32)c1	-2.2
CN1C(=O)c2cc(NC(=O)Nc3ccccc3Cl)ccc2OC[C@H]2O[C@H](CC(=O)O)CC[C@@H]21	26.6
Cc1ccc(CNC2CCc3c(ccc(=O)n3Cc3cccnc3)C2)o1 (stereo unspecified)	-23.7
Cc1ccc2cc3cc(C(=O)N(CC(=O)NC4CCCC4)Cc4ccco4)sc3nc2c1	37.0
CCOc1ccc(-c2nc(Cn3c(=O)c4cccnc4n(-c4ccccc4)c3=O)c(C)o2)cc1OC	13.7
CSc1ccc(C(=O)N2CCc3c(cnc(C)c3CNC(=O)/C=C/c3ccccc3)C2)cc1	21.8
Cc1cc(NCc2ccc(F)cc2)n2c(n1)nc1ccccc12	-67.7
Cc1nc(N)sc1C(=O)NCCO	9.2
COc1cc(N)c(Cl)cc1C(=O)NC1CCN(Cc2ccccc2)CC1	-6.9
COc1ccc2c3c([nH]c2c1)[C@@H](CO)N(Cc1ccncc1)CC31CN(C(=O)CN(C)C)C1	26.6
CC1=C(C(=O)NCCCN2CCCC2)C2(CCN(S(=O)(=O)c3cccs3)CC2)OC1=O	6.1
CC(C)CCN1C[C@@H]2CCN(C(=O)c3cn(C)c4ccccc34)CC[C@H]2S1(=O)=O	-45.6
CCC(c1nc(CC2CCN(C)CC2)no1)n1cccn1 (stereo unspecified)	8.0
CN(C)CC(=O)N1[C@@H](CO)[C@@H]2c3ccccc3N(C(=O)Cc3ccccc3)C[C@@H]21	10.4
Cc1cc(-c2ccccc2CO)ccc1NC(=O)c1cccnc1	-28.0
CC(=O)N1CC(C)Oc2ccc(S(=O)(=O)N3CCC4(CC3)Nc3ccccc3-n3cccc34)cc21 (stereo unspecified)	3.5
Cc1[nH]c2c(C(=O)NC3CCCN(C)C3)cccc2c1C (stereo unspecified)	16.0
Cc1sc2ncn(-c3ccc(Cl)cc3)c(=O)c2c1C	30.2
COc1ccc(OC)c(NC(=O)Cn2c(=O)ccc3cc(S(=O)(=O)N4CCCC4)ccc32)c1	479.3
COc1cccc(-c2ccc3c(C4CCCN4Cc4ccncc4)nnn3c2)c1 (stereo unspecified)	177.6

Remaining list, next part:
SMILES	Tgondii IFNg
CCOC(=O)N1CCC(N(C)Cc2ccc3ncccc3c2)CC1	0.2
CCCNC(=O)Cn1c(=O)cc(-c2nc(C(C)C)no2)c2ccccc21	42.7
CS(=O)(=O)N1C[C@H]2CNC[C@@]2(C(=O)NC2Cc3ccccc3C2)C1	-4.2
COc1ccc(CN2CC3C[C@@H]4CC2C[C@H](C3)C4)cc1C(=O)O	-13.0
O[C@H]1CN(c2ncnc3[nH]ccc23)C[C@@H]1N1CCN(c2ccccn2)CC1	13.5
COc1ccccc1-n1cc(C(=O)N[C@@H]2C[C@@H](CO)N(C)C2)cn1	-2.7
Cc1oc(-c2ccc(OC(C)C)cc2)nc1CN(c1ccccc1)S(=O)(=O)c1cccs1	-32.9
CC1CCN(S(=O)(=O)c2ccc3c(c2)CCC(=O)N3CC(=O)N(C(C)C)C2CCCCC2)CC1	5.4
COc1ccc(-c2nc(CCNC(=O)c3cc(OC)c(OC)c(OC)c3)cs2)cc1	i
COc1ccc(-c2nc(Cn3nnc(-c4nc(-c5ccccc5C)no4)c3C)c(C)o2)cc1	-18.9
CC(=O)Nc1ccc(S(=O)(=O)N2CCC(n3cnc4cccnc43)CC2)cc1	-95.5*
COc1ccc(NC(=O)C2C=CCN2)cc1NC(=O)c1ccco1 (stereo unspecified)	34.2
CCCCNC(=O)CN(C)C(=O)c1cccc(-c2ccc(O)cc2)c1	1.8
O=C1CSC(N=Nc2c(O)[nH]c3ccccc23)=N1	50.0
CC(C)(C)Nc1ncnc2c1cnn2-c1ccc(Cl)cc1	-45.9
C[C@@H]1CN([C@H](C)CO)C(=O)Cc2cc(N(C)C)ccc2O[C@H]1CN(C)C(=O)NC1CCCCC1	-15.5
CC(C)N(C)[C@@H]1CCN(S(=O)(=O)C2CC2)[C@H]1Cc1cnn(C)c1	1.6
Cc1c(C(=O)NCCc2nc(-c3ccccc3)no2)[nH]c2c(Cl)cccc12	45.8
Cc1oc(-c2cccc(Cl)c2)nc1CN1CCN(C(=O)Nc2ccccc2)CC1	-5.2
Cc1ccccc1C(=O)Nc1ccc(-c2nc(Cn3nc(C)c(C)c3C)c(C)o2)cc1	-97.0*
O=C(CC(C(=O)O)c1c[nH]c2ccccc12)c1ccccc1 (stereo unspecified)	87.9
OC[C@@]1(O)OC[C@@H](O)[C@@H](O)[C@@H]1O	4.6
O=C(Cn1c(=O)cc(C(=O)N2CCCC2)c2ccccc21)Nc1ccc(F)c(Cl)c1	7.4
CCCC(=O)N1CC2(CN(C(=O)C3CC3)C2)c2c(n(C)c3cc(OC)ccc23)[C@H]1CO	4.7
Nc1ncc(C(=O)N2C[C@@H]3[C@@H]4CC[C@@H](C4)[C@@H]3C2)c(-c2ccccc2)n1	-5.2

Later entries.
SMILES	Tgondii IFNg
O=C(NCCN1C(=O)CSC1=O)c1ccc(Oc2ncccn2)cc1	28.7
CN1C(C(=O)Nc2ccccn2)C(=O)c2sc(Cl)cc2S1(=O)=O (stereo unspecified)	-4.4
COc1ccc(CCNC(=O)CN2C(=O)CCc3cc(Br)ccc32)cc1OC	67.8
COC(=O)c1cccnc1Sc1ccc(C)cc1	10.8
CC(C)c1ccc(NC(=O)CN2C(=O)CCc3cc(S(=O)(=O)N4CCCCC4)ccc32)cc1	-113.3*
Cn1nnc2cc(C(=O)N(CCO)c3ccccc3)ccc21	93.8
CCn1ccnc1CN1CCC(O)(c2cccc(C(F)(F)F)c2)CC1	1.0
C[C@@H]1CN([C@H](C)CO)C(=O)c2c(c3ccccc3n2C)-c2ccccc2CO[C@@H]1CN(C)C(=O)Nc1ccc2c(c1)OCO2	6.3
CCC(Nc1ccccc1)C(=O)N1CCn2nc(C(=O)N3CCCC3)cc2C1 (stereo unspecified)	72.8
C[C@H]1CCCCO[C@H](CN(C)C(=O)NC2CCCCC2)[C@@H](C)CN([C@@H](C)CO)C(=O)c2cc(N(C)C)ccc2O1	166.2
O=C(NC1Cc2ccccc2C1)c1nnc(-c2ccccc2)o1	494.9
CC(C)NC(=O)N1CCC2(CC1)c1ncc(-c3ccnn3C)n1CCN2C	-88.7*
CNC(=O)c1cc(=O)n(CC(=O)Nc2c(C)cc(C)cc2C)c2ccccc12	-11.8
COc1ccc(C(=O)N(c2ccc(OC)cc2)C2(C(=O)NCc3ccccc3)CCN(C(C)=O)CC2)cc1	-65.9
CN(C)c1cc(C2CCN(C(=O)C3CCCCC3)CC2)nc(-c2cnccn2)n1	11.2
CCOC(=O)c1noc2ncn(Cc3nc(-c4ccccc4Cl)oc3C)c(=O)c12	-3.6
CS(=O)(=O)N1CCC2(CC1)CC(COCC1CC1)N(CC1CC1)C2 (stereo unspecified)	-0.2
COC(=O)[C@@]1(C)CCC[C@]2(C)c3ccc(O)c(C(C)C)c3CCC12 (stereo partly specified)	-76.4*
Cc1ccc(NC(=O)Cn2c(=O)cc(C(=O)N3CCCCC3)c3ccccc32)cc1	7.3

Reformatted: 4 of the compounds above
> CCOC(=O)c1noc2ncn(Cc3nc(-c4ccccc4Cl)oc3C)c(=O)c12
  Tgondii IFNg = -3.6
> CS(=O)(=O)N1CCC2(CC1)CC(COCC1CC1)N(CC1CC1)C2 (stereo unspecified)
  Tgondii IFNg = -0.2
> COC(=O)[C@@]1(C)CCC[C@]2(C)c3ccc(O)c(C(C)C)c3CCC12 (stereo partly specified)
  Tgondii IFNg = -76.4*
> Cc1ccc(NC(=O)Cn2c(=O)cc(C(=O)N3CCCCC3)c3ccccc32)cc1
  Tgondii IFNg = 7.3

Assay outcomes as filed in PubChem BioAssay.
